# Assay outcomes deposited in PubChem by several laboratories.
# UUG fidelity: alters start codon recognition fidelity in yeast; S. cerevisiae UUG-firefly luciferase reporter, luminescence/redox ratio; activity score, % at 18.7 µM; 350,000 compounds, 0.13% hits; AID 602363;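 active = replicate mean at a twofold rise or more, about +100% in these data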;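 also: firefly luciferase made from a UUG start codon reports start codon fidelity; reporter light over untreated wells divided by growth signal over untreated wells; some hits fall short of that in this replicate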
# eIF4H FP inh: inhibitors of RNA binding by human eIF4H; Q15056; eIF4H fluorescence polarization binding assay; inhibition, % at 35 µM; 290,000 compounds, 0.94% hits; AID 2012;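 active = 50% or more with normal probe brightness, or confirmed in later tests; inconclusive = above 50% with abnormal brightness, or retests that disagree; inactive = below 50% or failed in later tests; about a fifth of its hits are not listed in these tables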;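 also: calls also rest on retests at 20 µM and on dose response follow-up; 0% = protein and probe with vehicle and 100% = probe without protein; strong numbers were not always called active; many hits fall short of the cut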
# PABP FP inh: blocks human PABP binding to poly(A) RNA. fluorescence polarization. inhibition, % at 35 µM. 290,000 compounds, 1% hits. AID 2014;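 active = 50% or more with normal probe brightness, or confirmed in later tests; inconclusive = above 50% with abnormal brightness, or retests that disagree; inactive = below 50% or failed in later tests; about a fifth of its hits are not listed in these tables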;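 also: calls also rest on retests at 20 µM and on dose response follow-up; controls were probe without protein and protein plus probe with vehicle; some compounds called inactive have numbers as strong as hits; many hits fall short of the cut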
# Target sequence (P11940 whole entry, looked up): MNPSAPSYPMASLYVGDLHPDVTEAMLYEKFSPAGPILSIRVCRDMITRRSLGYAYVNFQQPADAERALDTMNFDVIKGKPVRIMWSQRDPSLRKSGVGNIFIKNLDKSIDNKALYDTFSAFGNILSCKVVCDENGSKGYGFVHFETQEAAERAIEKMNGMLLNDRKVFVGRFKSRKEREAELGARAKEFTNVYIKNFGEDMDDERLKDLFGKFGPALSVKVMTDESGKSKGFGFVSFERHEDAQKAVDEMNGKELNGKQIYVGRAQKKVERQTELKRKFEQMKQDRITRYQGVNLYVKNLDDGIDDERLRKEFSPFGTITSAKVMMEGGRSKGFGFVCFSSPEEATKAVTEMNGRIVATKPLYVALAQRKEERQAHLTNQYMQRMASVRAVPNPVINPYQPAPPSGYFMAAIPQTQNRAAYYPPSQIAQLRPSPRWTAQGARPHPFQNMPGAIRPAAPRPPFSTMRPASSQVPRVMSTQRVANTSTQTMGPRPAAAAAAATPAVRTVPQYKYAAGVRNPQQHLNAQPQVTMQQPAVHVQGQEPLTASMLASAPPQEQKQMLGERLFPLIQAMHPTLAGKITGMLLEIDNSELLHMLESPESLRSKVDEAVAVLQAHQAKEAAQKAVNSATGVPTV
# Rce1 inhib: yeast Ras-converting enzyme inhibition; 290,000 compounds, 0.27% hits; Q03530; calls only; AID 2563; yeast membranes, quenched prenylated peptide cleavage fluorescence;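 active = fall in fluorescence gain of 50% or more versus controls, with final raw signal at or below 3038400; inconclusive = same 50% fall but final raw signal above 3038400; inactive = fall in fluorescence gain under 50%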;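 also: plate controls were neutral control wells for no effect and wells lacking membranes for full effect; tested at 10 µM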
# Target sequence (Q03530 whole entry, looked up): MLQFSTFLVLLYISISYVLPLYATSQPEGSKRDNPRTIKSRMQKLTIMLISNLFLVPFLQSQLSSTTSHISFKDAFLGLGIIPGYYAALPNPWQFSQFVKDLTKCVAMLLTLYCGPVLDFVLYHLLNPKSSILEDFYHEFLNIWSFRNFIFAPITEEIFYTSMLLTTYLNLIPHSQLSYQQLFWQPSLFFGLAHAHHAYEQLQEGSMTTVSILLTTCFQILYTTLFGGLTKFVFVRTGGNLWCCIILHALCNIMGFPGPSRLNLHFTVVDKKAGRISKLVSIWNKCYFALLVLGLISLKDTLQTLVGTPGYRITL
# MT1-MMP act inh: MT1-MMP (human) activation inhibition; HT1080 RFP-PRO-GFP cells, GFP/RFP ratio fluorescence, overnight; percent of plate control window, DMSO zero; AID 651647; GFP/RFP ratio change, % at 20 µM; 360,000 compounds, 0.061% hits; P50281;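 active = GFP/RFP ratio change of at least 30% with cell ATP level not reduced by more than half and red fluorescence within 50% of control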; also: strong numbers were not always called active
#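 Material – HT1080 RFP-PRO-GFP cells · Control set – DMSO wells and RFP-L50D-GFP cells · Incubation – overnight cell settling, then overnight compound exposure, 37 °C, 5% CO2 · Compound dosing – single-point 20 µM compound, 1% DMSO · Read-out – GFP/RFP fluorescence ratio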
# CSC inhib: blocks cancer stem cells; cancer stem cell-like cells viability, luminescence; inhibition, % at 7.5 µM; 300,000 compounds, 1.1% hits;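 active = mean at 75% or more and at least half the replicates too; inconclusive = mean and replicates disagree; tested in HMLE shEcad cells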;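 also: 0% = median of negative and 100% = median of positive control wells; the first replicate is given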
# HIV Env fusion: HIV envelope-mediated fusion inhibition; HeLa-JRFL Env/CEM21 cell fusion, luciferase; inhibition, % at 12.3 µM; 360,000 compounds, 1.1% hits; AID 651610;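 active = mean replicate inhibition score of at least 50 and every replicate individually at or above 50; inconclusive = only one of the two criteria met; inactive = mean below 50 and not all replicates reaching 50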;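 also: 0% = plate neutral controls and 100% = maraviroc near 300 nM; one replicate is shown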
# eIF4H FP inh retest: also measured in eIF4H FP inh; calls as there; inhibition, %; compound at 20 µM; confirmation average;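 mean of two retest wells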
# PABP FP inh retest: second read-out of PABP FP inh, no call of its own (marks repeat the call); inhibition, %; compound at 20 µM; confirmation repeats;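 mean of two retest wells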
# MT1-MMP act inh RFP: second read-out of MT1-MMP act inh, no call of its own (marks repeat the call); RFP signal change, %; measured here: RFP expression control read;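 0 = vehicle wells; hits needed this value within 50% of zero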
# An asterisk follows results filed as active; i = inactive; u = inconclusive; x = not tested or not shown; & = joins results of further samples; [ ] = remark or other dose. Compounds as they come (roughly 2.9% active in at least one column).
SMILES,UUG fidelity,eIF4H FP inh,PABP FP inh,Rce1 inhib,MT1-MMP act inh,MT1-MMP act inh RFP,CSC inhib,HIV Env fusion,others
CCN(CC)C(=O)COC(=O)c1ccc(C)c(NC(=O)c2ccco2)c1,x,0,u,i,2,3,-8,-7,
OCCC1CN(Cc2cccn2-c2nccs2)CCN1C1CCCCC1 (stereo not given),-13,1,2,i,-1,3,27,0,
COc1ccc(S(=O)(=O)N(C)C)cc1NC(=O)CN1C(=O)NC2(CCCC2)C1=O,-6,6,4,i,3,4,3,5,
Cc1ccc2c(NC(=O)C3CC3)cccc2n1,-17,-10,0,i,2,1,-9,x,
CC1CCN(Cc2nc3c(c(=O)n(C)c(=O)n3C)n2CCc2ccccc2)CC1,-14,x,x,i,-2,3,x,x,
COC(=O)[C@H](C)NC(=O)Nc1cc(Cl)ccc1C,-23,-2,-4,i,-2,0,-6,12,
O=c1c(Cc2ccc(F)cc2)c(O)ccn1Cc1ccc(Cl)cc1Cl,-10,-10,-7,i,1,-8,6,x,
CCN(CC)S(=O)(=O)c1ccc(N2CCOCC2)c(NC(=O)c2ccc(=O)n(C)n2)c1,-7,x,x,x,2,6,x,3,
Cc1scc(C(=O)Nc2ccon2)c1-c1ccccc1,-7,-5,2,i,-2,2,-9,-56,
COc1ccc(NC(=O)c2ccc(Cl)c(S(=O)(=O)N3CC(C)OC(C)C3)c2)cn1 (stereo not given),-15,x,x,x,-6,-31,-11,x,
COC(=O)c1ccc(Cl)c(S(=O)(=O)N2CCCC2)c1,x,-1,11,i,-9,1,-5,9,
COc1ccc(NC(=O)/C=C/c2ccc(OC)c(OC)c2)cn1,x,-3,-2,i,5,-4,-6,3,
Cc1ccc(S(=O)(=O)Nc2ccccc2CNc2ccccn2)cc1,x,-8,-9,i,-2,-2,24,7,
CCCCN(CC)CCCNC(=O)c1cn(C)c(=O)c2c1c1ccccc1n2C,-9,-4,12,i,3,4,-5,-8,
Cc1ccc(COn2nnc3ccc(S(=O)(=O)N4CCOCC4)cc32)cc1,3,x,x,x,-1,-2,-6,x,
N#Cc1cnn(-c2ncnc3sc(-c4ccccc4)cc23)c1N,-18,-10,-10,i,2,-5,x,-130,
NC(=O)C1CCCc2c1n(Cc1ccccc1)c1ccccc21 (stereo not given),-14,2,-2,i,-5,-3,-1,41,
COc1ccc2c(c1)c(C(=O)N1CCN(C)CC1)c(C)n2-c1ccccc1,-8,-13,9,i,1,3,-11,-200,
CCCCN(C(=O)c1c(C)noc1C)c1c(N)n(CCCC)c(=O)[nH]c1=O,-9,x,x,i,0,3,-13,3,
COC(=O)COc1ccc(S(=O)(=O)Nc2ccc3c(c2)OCO3)cc1,-15,5,2,i,-6,0,0,x,
CSCC(C)N1CCC(N2CCC(C(=O)NCc3ccccn3)CC2)CC1 (stereo not given),-4,2,4,i,2,5,-2,2,
Cc1ccc(CNC(=O)C(NS(=O)(=O)c2cccs2)C(C)C)cc1 (stereo not given),x,-2,5,i,1,5,4,-23,
CC(=O)c1cccc(-c2ccnc3c2CC(C(=O)NCCC(F)(F)F)O3)c1 (stereo not given),-7,x,x,x,-6,-6,x,-53,
CC1(C)[N+]([O-])=C2C(=[N+]([O-])C1(C)C)c1ccccc1/C2=N\O,-19,-2,-7,i,1,3,-11,x,
CCCCc1c(O)c2ccccc2n(CCCC)c1=O,x,7,-1,i,5,0,-3,5,
O=C(Nc1c(F)cccc1F)c1ccc2c(c1)CCN2S(=O)(=O)c1ccccc1,-18,-15,4,i,3,-3,12,-3,
COc1ccccc1CNC(=O)c1ccc(CNc2c(N3CCCC3)c(=O)c2=O)cc1,-19,2,-14,i,-1,0,-1,19,
NC1=NC[C@@H](Cc2ccc(O)cc2)N1CCc1cc(C(F)(F)F)cc(C(F)(F)F)c1,2,2,-8,i,x,x,10,-51,
Cc1cc2ncc(-c3ccc(Cl)cc3)cn2n1,-9,0,13,i,2,5,x,-27,
CCN(CC)CCCN1C(=O)c2oc3ccccc3c(=O)c2C1c1cccnc1 (stereo not given),-9,1,-7,i,-3,4,-2,x,
CCC(=O)N1CCc2cc(OC)c(OC)cc2C1COc1ccc(OC)cc1 (stereo not given),12,-20,-3,i,1,2,-10,0,
[N-]=[N+]=NC1C[C@H](n2ccc(=O)[nH]c2=O)O[C@@H]1CO (stereo not given in full),-24,-13,-2,i,4,4,-8,-5,
O=C(c1cc(-c2ccc(Cl)cc2)on1)N1CCN(c2ccccc2)CC1,-6,3,6,i,1,6,27,-68,
N=C1SCC(=O)N1c1ncc(Cc2ccc(F)cc2)s1,-8,5,3,i,3,5,42,4,
COc1ccc(C=CC(=O)c2ccc3cc(OC)c(OC)cc3c2)cc1OC,-2,x,x,x,0,-12,x,13,
CC1CCN(C(=O)c2ccc(CSc3ccc(Cl)cc3)cc2)CC1,-3,5,12,i,-7,-20,3,x,
COc1ccc(NC(=O)c2cc3c(CO)cnc(C)c3oc2=Nc2cccc(C)c2)c(OC)c1,-5,-11,-10,i,-7,2,x,2,
CCOc1ccc(NC(=S)N(CCN2CCOCC2)Cc2cc3cc4c(cc3[nH]c2=O)OCO4)cc1,x,29,47,i,-2,-2,-13,23,
COCc1nnc(NC(=O)c2c(-c3c(Cl)cccc3Cl)noc2C)s1,-12,-6,0,x,-8,-1,5,16,
CC(=O)NCCC(=O)Nc1nc2c(ccc3ccccc32)s1,-7,-15,-3,i,5,1,-3,-18,
Cc1ncccc1C(=O)N1CCCC(CNC(=O)c2ccc(-c3ccccc3)cc2)C1 (stereo not given),x,0,0,i,8,-8,-2,2,
CC(=O)C1=C(O)C=C(c2ccco2)CC1c1ccco1 (stereo not given),-5,78,57,i,5,6,2,-52,eIF4H FP inh retest=-9;PABP FP inh retest=29
COc1ccc(/C(N)=N/O)cc1O,-13,-8,0,i,1,1,-6,9,
COc1ccc(-c2cc(C(F)F)n3ncc(C(=O)N4CCSCC4)c3n2)cc1,x,-17,2,i,-2,-6,4,x,
CC(=O)Nc1ccc(CN2CCC(CO)(CCOc3ccccc3)CC2)cc1,-8,1,-9,i,5,-8,-3,18,
CN(CC(=O)Nc1ccccc1Br)C(=O)CCc1nc2ccccc2c(=O)[nH]1,-13,x,x,i,-7,3,-9,-6,
O=C(CCC1CCCCC1)NC1=NCCS1,x,-7,4,i,3,-3,-20,-1,
COc1ccc(OC)c(NC(=O)CCNS(=O)(=O)c2cccc3nsnc23)c1,-2,3,-3,i,-2,5,-19,3,
CCNC(=O)CSc1nnc(-c2cccs2)o1,x,0,7,i,-2,5,6,16,
COC(=O)c1c(NC(=O)C2CC2)sc2c1CCN(C(C)=O)C2,-13,8,10,i,3,4,-2,-37,
O=Cc1ccccc1Oc1ccccc1,-3,6,-14,i,1,3,1,x,
O=C(NCc1ccncc1)c1ccc(Cl)c(S(=O)(=O)N2CCCCC2)c1,x,-6,-20,i,3,-4,-5,18,
COc1cc2oc(=O)cc(CN3CCOCC3)c2cc1Cl,-5,x,x,x,-2,2,x,6,
CC(Cn1cncn1)C(=O)N1CCN(S(=O)(=O)c2ccc(Cl)cc2)CC1 (stereo not given),-20,3,2,i,2,3,-11,17,
O=C(O)c1cc(-c2ccc(N3CCOCC3)cc2)nn1-c1ccccc1Cl,x,5,3,i,-2,3,-5,8,
CS(=O)(=O)c1ccc2nc(NC(=O)Nc3ccccc3F)sc2c1,-11,-8,3,i,2,-1,-2,-124,
CCOc1ccc(CN(C)CC(=O)Nc2cccc3ccccc23)cc1OC,-1,1,-7,i,0,-2,-12,13,
COc1cc(CC(=O)Nc2ccc(Cl)c(C(F)(F)F)c2)cc(OC)c1OC,x,-6,9,i,5,-2,19,21,
O=C1C[C@@H](c2ccccc2)Oc2cc(O)cc(O)c21,-4,x,x,i,-1,4,0,-20,
S=C(NCc1ccccc1)NC1CCCCC1,x,-6,-8,i,2,0,-9,7,
# More entries follow.
SMILES,UUG fidelity,eIF4H FP inh,PABP FP inh,Rce1 inhib,MT1-MMP act inh,MT1-MMP act inh RFP,CSC inhib,HIV Env fusion,others
O=C(CSc1nc2ccccc2s1)Nc1cc(S(=O)(=O)N2CCOCC2)ccc1O,x,18,-2,i,-1,4,-9,-3,
O=C(CN1C(=O)CSc2ncccc21)Nc1ccccc1F,-44,-2,4,i,-3,0,-20,-14,
COc1ccc(-c2nc(NC(C)=O)sc2-c2ccccc2)cc1,x,11,-2,i,-3,-3,x,6,
Clc1ccccc1-c1ccc2ncnc(NCc3cccnc3)c2c1,3,x,x,x,5,-2,x,-6,
Cn1c(Cl)c(/C=N/OC(=O)c2cccc(Cl)c2)c2ccccc21,-19,-9,-5,i,1,4,-4,x,
COCc1cc(/C=N\NC(=O)COc2ccc(Cl)cc2)ccc1OC,x,0,8,i,3,2,7,-7,
COc1ccc(CCNC(=O)CCNS(=O)(=O)c2cccc3nonc23)cc1OC,-3,-3,-6,i,4,4,11,-40,
O=C(N(c1ccccn1)c1ccccn1)C12CC3CC(CC(C3)C1)C2,x,9,4,i,1,5,-15,41,
CCOC(=O)c1cc(=O)c2c([N+](=O)[O-])ccc(OC)c2o1,-12,-7,-4,i,0,0,-7,x,
CCOC(=O)/C=C/[C@H]1CC2(CCO1)SCCCS2,-18,x,x,x,1,0,6,69*,
O=C(N/N=C/c1ccc(OC(F)F)cc1)C1=COCCO1,-10,-12,4,i,1,7,-3,-27,
CCCc1cc(=O)[nH]c(SCC(=O)c2cc(C)n(CCOC)c2C)n1,-6,-2,-6,i,3,9,7,-69,
COc1cc(/C=C/c2noc(-c3ccccc3O)n2)cc(OC)c1OC,-14,2,-7,i,7,4,-13,-19,
O=C(Cc1ccccc1)Nc1ccc(S(=O)(=O)N2CCOCC2)cc1,x,-5,-7,i,1,0,4,4,
Cc1noc(C)c1S(=O)(=O)Nc1ccccc1Cl,-13,-10,-8,i,0,3,-16,-3,
Cc1cc(C)c2c(c1)/C(=N/Nc1ccc(S(N)(=O)=O)cc1[N+](=O)[O-])CCC2,x,-4,-5,i,1,1,16,12,
NC(=O)C1=C[C@H](c2ccc3c(c2)OCO3)C[C@H](OCc2ccc(CO)cc2)O1,-25&-14,-7,-8,i,1,1,-3,-26[16.7 µM],
O=C(Nc1ccc(Cl)cc1)OCc1cncs1,-12,-1,1,i,4,-2,7,x,
C(=Cc1nc2ccccc2o1)c1ccc2c(c1)OCO2,-36,x,x,x,-3,0,x,10,
COc1ccc(CCN(Cc2cccs2)S(=O)(=O)c2ccc(S(=O)(=O)N(C)C3CCCCC3)cc2)cc1OC,-7,-5,-2,i,-1,-3,-3,13,
O=C(NCCCc1ccccc1)c1ccc(CS(=O)Cc2ccccc2Cl)o1 (stereo not given),3,1,0,i,4,3,-7,2,
CC(=O)Nc1ccc(NC(=O)c2cc(=O)c3ccc(C)cc3o2)cc1,-9,-7,2,i,-7,-4,-8,10,
Cc1ccc(SCCNC(=O)c2ccccc2C)cc1,-1,-4,9,i,3,1,-15,x,
C=CCn1cnc2c(nnn2-c2ccc(C)c(C)c2)c1=O,x,0,0,i,-3,-1,-6,-5,
